# Mtb MbtI inh = blocks the Mycobacterium tuberculosis siderophore enzyme MbtI; P9WFX0; purified MbtI enzyme, fluorescence intensity read-out; inhibition, %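 (about 17 µg/mL by stock and volumes)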; actives 0.89% (n = 100,000); AID 493033;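 active = above 50% in both replicates, above 80% if mildly self-fluorescent; inactive = the rest, strongly fluorescent compounds included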;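 note: 0% = mean of negative and 100% = mean of positive controls; one replicate is shown; some compounds called inactive have numbers as strong as hits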
# Target sequence (P9WFX0 whole entry, looked up): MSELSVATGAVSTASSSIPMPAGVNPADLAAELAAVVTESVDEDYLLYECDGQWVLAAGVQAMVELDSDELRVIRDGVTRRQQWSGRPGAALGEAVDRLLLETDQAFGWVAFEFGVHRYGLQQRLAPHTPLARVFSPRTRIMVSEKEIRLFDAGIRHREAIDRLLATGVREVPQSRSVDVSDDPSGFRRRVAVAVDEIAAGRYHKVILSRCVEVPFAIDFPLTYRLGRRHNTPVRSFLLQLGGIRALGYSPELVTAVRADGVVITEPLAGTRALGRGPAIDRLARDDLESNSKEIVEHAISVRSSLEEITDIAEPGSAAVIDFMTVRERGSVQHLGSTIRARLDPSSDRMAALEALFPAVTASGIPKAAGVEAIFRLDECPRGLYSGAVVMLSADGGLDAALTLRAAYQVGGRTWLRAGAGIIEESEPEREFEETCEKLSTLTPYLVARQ
# * marks the source's active call; other numbers are inactive results.
SMILES,Mtb MbtI inh
CC(Cc1ccccc1)N1Cc2ccccc2C1 (stereo not given),-4
CCC(C(=O)O)n1nc(-c2ccccc2)c2cc(Cl)ccc21 (stereo not given),-42
C=CCNc1nc(Cl)nc(Nc2ccc(OCC)cc2)n1,-6
COc1ccc(CNC(=O)c2ccc(Cn3cc(Cl)cn3)o2)cc1,-1
CCOC(=O)N1CCC(NC(=O)c2cc(C(=O)Nc3ccc(C)c(F)c3)ccc2CO)CC1,-12
COC(=O)c1ccc(CN(C(C)=O)c2ccccc2)o1,-5
CCN1CCCc2cc(O)ccc21,98*
C=CC[C@H]1CC=C[C@H](c2ccccc2)N1,-5
Cc1ccccc1NC(=O)CN1C(=S)NC(C)(C)CC1C (stereo not given),23
Nc1nc(-c2ccccc2)cc(=O)[nH]1,8
CC(C)CNc1nnnc2c1sc1nc(N3CCOCC3)c3c(c12)CCCC3,-5
Cc1nccn1CC(=O)N1c2ccccc2Sc2ccccc21,-3
O=C1CCC/C1=C1\SCC(=O)N1c1ccccc1,-11
O=C(O)CC1=C(c2ccccc2)CCC1=O,6
O=C(O)CCc1nn2c3ccccc3nc2n(CCN2CCCCC2)c1=O,-4
CN(C)CCCN1C(=O)CCCCc2sc3c(c21)CCCC3,-6
Cc1cc(SCc2ccccc2)n2ncnc2n1,-7
CCN(CC)C(=O)CC(c1ccc(F)cc1)c1ccco1 (stereo not given),-1
CC1=CCC2(C(=O)OC(C)(C)OC2=O)C(c2ccccc2)C1 (stereo not given),-13
O=S1(=O)C=C(SCCN2CCCCC2)c2ccccc21,-6
COc1ccc(CNC(=O)Cn2ccc3ccccc3c2=O)cc1,76
CCOC(=O)Cn1ncc2c(=O)oc3ccccc3c21,-9
CCOC(=O)c1cc2c(=O)n3ccccc3nc2n(C2CCCCC2)c1=NC(C)=O,105
CCOc1ccc(CC(=O)Nc2c(C(N)=O)oc3ccc(Cl)cc23)cc1OCC,-12
Cc1c(Cc2c(C)n(C)n(-c3ccccc3)c2=O)c(=O)n(-c2ccccc2)n1C,-9
O=C(O)c1cccc(NC(=O)C2CC=CCC2C(=O)O)c1 (stereo not given),-2
CCN(CC)CCNc1c(N)c(=O)oc2ccccc12,-11
COc1ccc(-c2cn3c4ccccc4nc3n2CCN2CCN(CCO)CC2)cc1,-38
N#CC1=C(N)C(C#N)(C#N)C(c2ccco2)C2CCCC=C12 (stereo not given),-43
O=c1c2ccccc2nc2c3ccccc3c(SCc3ccccc3)nn12,12

# Compounds shown so far containing a halogen:
SMILES,Mtb MbtI inh
CCC(C(=O)O)n1nc(-c2ccccc2)c2cc(Cl)ccc21 (stereo not given),-42
C=CCNc1nc(Cl)nc(Nc2ccc(OCC)cc2)n1,-6
COc1ccc(CNC(=O)c2ccc(Cn3cc(Cl)cn3)o2)cc1,-1
CCOC(=O)N1CCC(NC(=O)c2cc(C(=O)Nc3ccc(C)c(F)c3)ccc2CO)CC1,-12
CCN(CC)C(=O)CC(c1ccc(F)cc1)c1ccco1 (stereo not given),-1
CCOc1ccc(CC(=O)Nc2c(C(N)=O)oc3ccc(Cl)cc23)cc1OCC,-12

# The listing continues:
SMILES,Mtb MbtI inh
CN(C(=O)COc1cccc(Br)c1)C1CCS(=O)(=O)C1 (stereo not given),4
N#CCCN1CCN(CCC#N)CC1,-1
COC(=O)Cn1ncc2ccccc2c1=O,-8
COc1ccccc1Cn1c(=O)[nH]c2cccnc21,-10
Cc1cccc(NC(=O)C2NC(=O)CC2c2ccccc2)c1C (stereo not given),2
Cc1[nH]c2ccccc2c1C1CCNCC1,-16
CN(C)CCCN1C(=O)CSC1c1ccccc1 (stereo not given),-5
Cc1cnn(-c2cc(Oc3ccccc3)ncn2)c1,1
Cc1ccc(C)n1-c1ccc(SCC(=O)O)cc1,41
O=C(O)c1cccc(CSc2ncccn2)c1,-1

# Laid out differently: results already given
SMILES	Mtb MbtI inh
CC(Cc1ccccc1)N1Cc2ccccc2C1 (stereo not given)	-4
CCC(C(=O)O)n1nc(-c2ccccc2)c2cc(Cl)ccc21 (stereo not given)	-42
C=CCNc1nc(Cl)nc(Nc2ccc(OCC)cc2)n1	-6
COc1ccc(CNC(=O)c2ccc(Cn3cc(Cl)cn3)o2)cc1	-1
CCOC(=O)N1CCC(NC(=O)c2cc(C(=O)Nc3ccc(C)c(F)c3)ccc2CO)CC1	-12
COC(=O)c1ccc(CN(C(C)=O)c2ccccc2)o1	-5
CCN1CCCc2cc(O)ccc21	98*
C=CC[C@H]1CC=C[C@H](c2ccccc2)N1	-5
Cc1ccccc1NC(=O)CN1C(=S)NC(C)(C)CC1C (stereo not given)	23

# Remaining list, next part:
SMILES,Mtb MbtI inh
COc1ccc(C2(CNC(=O)c3ccccc3)CCOCC2)cc1,-17
O=C(O)C(Cc1ccccc1)N1C(=O)c2ccccc2C1=O (stereo not given),6
Cc1cc(Br)ccc1NCc1cccnc1,-12
CC1CC2(C)CC(C(=O)O2)C1C(=O)O (stereo not given),-14
N=c1c2c3c(sc2ncn1Cc1ccccc1)CCCCC3,-12
Cc1ccc(NC(=O)C(C)C)cc1,-8
CCN(CC)Cc1cc(CCNC(=O)c2ccc(Cl)cc2)ccc1O,-2
CC(=O)OC1CC(c2ccccc2)N(C(C)=O)C(c2ccccc2)C1c1ccccc1 (stereo not given),0
O=c1c2cc(NC(=S)N3CCCC3)ccc2nc2n1CCCCC2,1
COc1ccc(NC(=O)c2cccnc2Nc2ccc(OC)cc2)cc1,-2
CC(C)OCC1Cn2c(nc3c2c(=O)n(C)c(=O)n3C)O1 (stereo not given),-5
CCCCc1cc(-c2n[nH]c(=S)o2)c2ccccc2n1,8
COC(=O)C1=CNC=C(C(=O)OC)C1c1cccc2ccccc12,-130
CCCSc1nnc2c(n1)-c1cccc3cccc-2c13,-5
O=C1C(c2ccccc2)C(c2ccco2)NC(c2ccco2)C1c1ccccc1 (stereo not given),11
O=C1C2C3C=CC(C3)C2C(=O)N1CCc1ccccc1 (stereo not given),-16
CC(=O)Nc1ccc(S(=O)(=O)N2CCC(N(C)C(C)C)CC2)cc1,-14
Cc1ccc(C)n1-c1nc(SCCCC(=O)O)n[nH]1,-6
CCOC(=O)C1CCCC(C)N1 (stereo not given),-6
CC(C)C(NC(=O)C1CCCCC1)C(=O)Nc1ccc(F)c(Cl)c1 (stereo not given),-11
CCOc1ccc2c(c1)C(C)CC(C)(C)N2 (stereo not given),-23
Cc1nn(-c2ccc(Cl)cc2Cl)c(=O)c2ccccc12,-15
Nc1ccc(Oc2ccc(C(=O)O)cc2)cc1,0
COc1ccc(CCNC(=O)CC(c2ccccc2)c2cc(C)ccc2O)cc1OC (stereo not given),-11
CCOC(=O)C(Cc1ccccc1)C(=O)N1CCCc2ccccc21 (stereo not given),-5
CCOc1cccc(C(=O)Nc2cccc(-c3nc4ccccc4[nH]3)c2C)c1,-9
Cn1c(=O)c2nc(-c3nc4ccccc4[nH]3)c(N)nc2n(C)c1=O,3
CC(=O)Nc1nc2ccccc2n1CCN1CCCC1,6
CCOc1cc(C(=O)Oc2cc(=O)oc3ccccc23)cc(OCC)c1OCC,-7
O=C1Cc2ccccc2C(c2cccc(Cl)c2)N1 (stereo not given),0
CC1(C)Cc2c(sc3ncn4nc(-c5ccncc5)nc4c23)C(C)(C)N1,-7
CC(=O)N(CCC(c1ccccc1)c1ccco1)Cc1ccc(OC(C)C)cc1 (stereo not given),-3
COc1ccc(-n2nc(C(=O)NCC(=O)N3CCCC3)c3ccccc3c2=O)cc1,2
CCOC(=O)CSc1nn(C)c(=S)s1,25
CC(C)c1nc2sc3c(ncn4ncnc34)c2c2c1CCCC2,2
CCOC(=O)C(N)C(O)c1ccccc1 (stereo not given),-17
CCC(=O)N1CC23C=CC(CC2CC12CCCCC2)O3 (stereo not given),-13
C/C(=C\c1nsc(Nc2ccc(Cl)cc2)n1)NCc1ccc2c(c1)OCO2,-15
Cc1[nH][nH]c(=O)c1C(c1ccccc1)C(C#N)C#N (stereo not given),-14
COc1ccc2c(c1)sc1nc(=O)ccn12,13
Cc1c(Cc2ccccc2)c(=O)oc2c(C)c(OCC(=O)O)ccc12,-49
Nc1ccc(C(=O)OCc2nc3ccccc3[nH]2)cc1,-3
Cc1c(Br)c(=O)[nH]c(=O)n1COCc1ccccc1,-9
CC(Oc1ccc2c3c(c(=O)oc2c1)CCC3)C(=O)OC1CCCCC1 (stereo not given),6
O=C(O)c1ccccc1C(=O)Nc1cccc(Cl)c1,-11
CCC(C)N(C)Cc1cccc(C2(O)CCN(S(=O)(=O)c3ccc(OC)c(OC)c3)CC2)c1 (stereo not given),0
CC(C)c1cc(CN2CCN(CCC#N)CC2)cc(C(C)C)c1O,-9
CC1(C)CC(NC(=O)CCCOc2ccc(Cl)cc2Cl)CC(C)(C)N1,-12
CCn1ccc(C(=O)Oc2ccc(Cl)cc2)n1,4
O=C(Nc1cccc(Cl)c1)c1ccc2c(Cl)c3c(nc2c1)CCCC3,-6

# The list goes on:
SMILES,Mtb MbtI inh
CC(=O)N1CCC(O)C2CCCCC21 (stereo not given),-16
CC(C)Oc1ccc(C(CC(=O)NC2CCOC(C)(C)C2)c2ccccc2)cc1 (stereo not given),0
N#Cc1ccc(Oc2ccc(N3C(=O)CCC3=O)cc2)cc1,-16
CCOc1cc(-c2noc(N)c2C#N)cc(OCC)c1OCC,5
CCc1c(C)[nH]n2cnnc2c1=O,-1
NCCCn1cnc2ccccc21,0
Nc1ccc(-c2ccc(CO)o2)cc1,-44
COc1ccc(C2OC(=O)CC2C(=O)NCCc2ccccc2)cc1OC (stereo not given),-8
COC(=O)c1ccc2c(=O)n3c(nc2c1)SC1CS(=O)(=O)CC13 (stereo not given),9
CC1CCCC(N2CCC(N3CCN(CCO)CC3)CC2)C1 (stereo not given),-6

# Compounds from the list above with two or more sulfur atoms (3):
SMILES,Mtb MbtI inh
O=S1(=O)C=C(SCCN2CCCCC2)c2ccccc21,-6
CCOC(=O)CSc1nn(C)c(=S)s1,25
COC(=O)c1ccc2c(=O)n3c(nc2c1)SC1CS(=O)(=O)CC13 (stereo not given),9

# (listing goes on)
SMILES,Mtb MbtI inh
NC(=O)c1ccc2c(c1)C1C3CCC(C3)C1C(c1ccccc1)N2 (stereo not given),-68
CNC(=O)Oc1ccc2sc(=O)oc2c1,22
O=C(CCc1ccccc1)NCc1ccccc1,-10
CN(C)c1nc2ccc(O)cc2s1,-6
COc1ccccc1CC(CC(=O)O)C(=O)O (stereo not given),-14
O=C(O)c1ccc(S(=O)(=O)Nc2ccc3oc(=O)sc3c2)cc1,78*
Cc1c(Cl)cccc1NS(=O)(=O)c1cccc2nsnc12,1
CC1C(=O)CCC1(C(=O)O)c1ccccc1 (stereo not given),-14
COC(=O)Cn1cnc2scc(-c3ccc(OC)c(OC)c3)c2c1=O,-2
COC(=O)c1ccc(CN2CCCCC2)cc1,-10
Cc1ccc(O)c(-n2nc3ccccc3n2)c1,-5
CCOC(=O)Cn1c2ccccc2n2nc(C)nc12,-9
Cc1cc(C(=O)O)c(C)n1Cc1ccccc1,0
CCCCN(C)S(=O)(=O)c1cc(-c2n[nH]c(=O)c3ccccc23)ccc1C,-13
O=c1[nH]cnc2c1sc1nc(-c3ccco3)c3c(c12)CCCC3,-3
Cc1ccccc1NC(=O)C1(N(CC(C)C)C(=O)Cn2nnnc2N)CCCCC1,-2
CC(C)n1[nH]c(=O)c2c1NC(=O)CSC2c1ccccc1 (stereo not given),-4
OCC(c1ccccc1)C1CCCCC1 (stereo not given),-7
O=C(O)c1ccc(-c2nc3cc(Cl)ccc3s2)cc1,-2
COc1ccc(-c2ccc(=O)n(Cc3c(F)cccc3Cl)n2)cc1,0
CCC(=O)n1c(=O)oc2ccc(Cl)cc21,0
N/C(CCn1nnc2ccccc21)=N\O,-12
Cc1cc(SCc2ccccc2)nc(=O)[nH]1,4
C=CCn1cnc2c1c(=O)n(C)c(=O)n2C,-9
CC(C)N(C(=O)C1CC(=O)OC12CCCCC2)C(C)C (stereo not given),-8
COc1ccc(NC(=O)CCSc2nc3ccccc3s2)cc1,-6
OCC1(CO)COC2(CCN(Cc3ccccc3)CC2)N1,-9
Cc1cc(C)n(CC(O)c2ccccc2)n1 (stereo not given),-8
O=C1c2ccccc2C(=O)N1CCCc1nc2ccccc2c(=O)n1Cc1ccco1,2
Cc1cc(=O)n(C)c(=O)n1CCCCN1CCOCC1,-1
Cc1cccc(N2C(=O)c3ccc(C(=O)Nc4ccccc4O)cc3C2=O)c1,-7
OC1CC(c2ccccc2)NC2(CCCCC2)C1 (stereo not given),-2
CC(=O)Oc1c(Sc2c(F)c(F)c(F)c(F)c2F)c(C)nn1C(C)(C)C,9
CN(CCc1ccccn1)Cc1cccc(F)c1,-6
NS(=O)(=O)c1ccc2[nH]c3c(c2c1)CCCC3,-17
COc1cc(OC)c2c(C(=O)O)cc(-c3ccc(O)c(OC)c3)nc2c1,-6
CC(=O)Oc1c2c(C)[nH]nc2nc2c1c(=O)n(C)c(=O)n2C,-9
CC1(C)CC2(CCO1)OC(=O)CC2C(=O)NCCc1ccccc1 (stereo not given),2
CCOC(=O)c1[nH]c2c(c1C)/C(=N/O)CCC2,-7
CCN(CC)c1nc(N(CC)CC)[nH]c(=O)n1,-9
O=C(O)CCSc1nc2ccccc2c(=O)[nH]1,-7
N/C(CSc1nc(-c2ccccc2)c(-c2ccccc2)o1)=N\O,38
COC(=O)Cn1c(=O)n(-c2ccccc2)c(=O)n1CC(=O)OC,-18
O=C(O)CCCC(=O)N1CCCC1,2
COc1ccc(C(Nc2cc(C)on2)c2c(C)[nH]c3ccccc23)cc1OC (stereo not given),8
Cc1ccnc(NC(c2ccc3c(c2)OCO3)c2c(C)[nH]c3ccccc23)c1 (stereo not given),49
O=c1[nH]c2ccc(Cl)cc2c(-c2ccccc2)c1SCCO,-6
O=c1[nH]c2cc(Cl)ccc2c(-c2ccccc2)c1Sc1ncn[nH]1,5
O=C(O)c1ccc(CS(=O)c2ccccc2)o1 (stereo not given),7
CCc1ccc(NC(=S)N(Cc2cccs2)C2CCCC2)cc1,11
CC1(c2ccccc2)CCC(=O)O1 (stereo not given),-8

# Screening data (PubChem)

# Only part of the results is shown (hit frequency here may not be typical).
